Compound activity (PubChem)
VCAM-1 rise – enhancers of VCAM-1 display on endothelial cells, cell-based, plate reader, pooled HUVEC, TNFa stimulus (AID 455) | HUVEC TNFa-induced VCAM-1 immunofluorescence, plate reader; numbers were filed only for top-ranked candidate wells | augmentation, % at 5 µM | hit rate 0.2% among 10,000;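 active = a compound raising TNF-alpha-driven VCAM-1 surface staining, with its hit status upheld on visual or statistical review; inactive = the rest, including hits rejected on review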;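 also: 0% = TNFa with vehicle and 100% = strongest image-checked hit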
26S disassembly – inhibitors of ATP-driven 26S proteasome dissociation, primary screen, biochemical, bead-based flow cytometry, GFP-tagged proteasome. anti-FLAG beads, GFP-proteasome disassembly. inhibition of disassembly, % (concentration not given with the values). hit rate 0.2% among 24,000;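 active = above 40%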;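 also: plate controls were ATP control with full disassembly for no effect and ATP-gamma-S intact proteasomes for full effect; higher percent means more bead fluorescence retained so stronger block of disassembly; stock transfer was 100 nL into about 10 µL; wells with too few beads may also be inconclusive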
* marks the source's active call; other numbers are inactive results. Some of the compounds tested, so the mix of outcomes need not match the whole.

`CC(C(=O)NCc1cccs1)n1cccc1` (stereo not given) gave 26S disassembly 9.8.
`COCCN1Cc2cccc(C(=O)NCc3ccccn3)c2C1=O` gave 26S disassembly -0.5.
Screening CCOc1ccccc1NC(=O)CSc1ncnc2c1oc1ccccc12 returned 26S disassembly -2.4.
`Cc1ccccc1NS(=O)(=O)c1cc(S(C)(=O)=O)ccc1Cl` gave VCAM-1 rise inactive and 26S disassembly 0.9.
For CCCCc1ccc(NC(=O)C2CCCO2)cc1 (stereo not given) the results were VCAM-1 rise inactive and 26S disassembly -0.3.
COc1ccccc1NC(=O)C1(C)Cc2ccccc2C(=O)O1 (stereo not given) was read as VCAM-1 rise inactive and 26S disassembly -0.7.
Screening CC(C)CNC(=O)c1cc(-c2ccc(Cl)c(Cl)c2)on1 returned 26S disassembly -0.3.
Screening CCC(CO)n1cnnc1-c1ccncc1 (stereo not given) returned 26S disassembly -2.0.
Screening CCOC(=O)N1CCN(C(=O)Nc2sc3nc4n(c(=O)c3c2C)CCC(C)CC4)CC1 (stereo not given) returned 26S disassembly 0.7.
`O=C(CSc1nnnn1-c1ccc(Cl)cc1)NC(=O)Nc1ccc2c(c1)OCCO2` gave VCAM-1 rise inactive and 26S disassembly -0.9.
For CC1CC(C)CN(c2ncnc3c2cnn3-c2ccc(Cl)cc2)C1 (stereo not given) the results were VCAM-1 rise inactive and 26S disassembly -0.7.
`CCOC(=O)C1CCCN(C(=O)CCC(=O)Nc2ccc3nc(N4CCOCC4)cc(C)c3c2)C1` (stereo not given) gave 26S disassembly 1.3.
CN1CCN(C(=O)c2cc3c(s2)-c2ccccc2S(=O)(=O)C3)CC1 was read as 26S disassembly -1.1.
O=C(NCCc1ccccc1)c1ccc2c(c1)N(Cc1ccccc1)C(=O)CS2=O (stereo not given) was read as 26S disassembly -1.2.
For COc1ccc(-c2cc(C(F)(F)F)nc(N3CCOCC3)n2)cc1OC the results were 26S disassembly 0.2.
Screening Cc1c(C(=O)Nc2ccccc2)sc2nc(-c3ccccc3)cn12 returned 26S disassembly -0.1.
For O=C(O)CCc1nnc2n(Cc3ccc(F)cc3)c(=O)c3ccccc3n12 the results were 26S disassembly 0.5.
For O=C(c1cccs1)N(Cc1ccco1)Cc1cc2ccccc2[nH]c1=O the results were VCAM-1 rise inactive and 26S disassembly 4.5.
`c1ccn2c(SCc3ccc4c(c3)OCCO4)nnc2c1` gave VCAM-1 rise inactive and 26S disassembly 0.7.
Screening COCCN(CCOC)C(=O)c1cc2c(=O)n3ccccc3nc2s1 returned 26S disassembly 1.4.
Screening CCN(CC)S(=O)(=O)c1ccc(S(=O)(=O)N2CCN(CCC#N)CC2)cc1 returned 26S disassembly -0.3.
Screening Cc1occc1-c1nnc(SCC(=O)c2ccc(F)cc2)n1Cc1ccco1 returned VCAM-1 rise inactive and 26S disassembly 3.4.
`CS(=O)(=O)N1CCCC(C(=O)NCCCN2CCN(Cc3ccccc3)CC2)C1` (stereo not given) gave 26S disassembly 0.7.
`Cc1cc(C)c(S(=O)(=O)Nc2ccc(OCC(=O)O)cc2)c(C)c1` gave 26S disassembly -0.8.
`COc1ccc(-n2nnnc2SCC(=O)N2CCOCC2)cc1` gave VCAM-1 rise inactive and 26S disassembly -0.1.
Screening COCCn1c(=S)[nH]c2cc(C(=O)NCCCN3CCOCC3)ccc2c1=O returned 26S disassembly -0.3.
Fc1ccc(CNc2nc(-c3ccco3)cc(C(F)(F)F)n2)cc1 was read as 26S disassembly 3.0.
CCOC(=O)c1cc(-c2ccc(F)cc2)n(CC(=O)Nc2nccs2)c1C was read as 26S disassembly -1.0.
For CCOC(=O)N1CCC(Nc2c(Nc3ccc(C)c(C)c3)c(=O)c2=O)CC1 the results were 26S disassembly 1.8.
COc1ccccc1NCN1C(=O)CCC1=O was read as VCAM-1 rise inactive and 26S disassembly -0.9.
CCOCCCN1C(=O)CN(C2CCCCC2)C(=O)C1c1ccc(OCC)c(OC)c1 (stereo not given) was read as 26S disassembly -1.0.
Screening O=C(CSc1nnc(Cc2cc(=O)[nH]c(=O)[nH]2)n1-c1ccccc1)N1CCCCC1 returned 26S disassembly 0.4.
Screening COC(=O)CCC(=O)CN returned VCAM-1 rise inactive and 26S disassembly -1.2.
For CC(NC(=O)c1cc2ccccc2o1)C(=O)O (stereo not given) the results were 26S disassembly 2.7.
`Cc1ccc(-c2cn3cccnc3n2)cc1NC(=O)c1ccc(Br)o1` gave VCAM-1 rise inactive and 26S disassembly 1.0.
`COc1ccc(C2c3c(n[nH]c3C)CC(C)(O)C2C(C)=O)cc1OC` (stereo not given) gave 26S disassembly -0.3.
For CCOC(=O)N1CCC(NC(=O)CN2C(=O)C(CC)Oc3ccc(C)cc32)CC1 (stereo not given) the results were 26S disassembly -0.7.
Screening Cc1ccc(OCc2nnc(SCC(=O)Nc3ccc4c(c3)OCO4)n2C)cc1 returned VCAM-1 rise inactive and 26S disassembly 1.2.
Screening O=C(NCc1ccco1)c1csc(Nc2ccccc2Cl)n1 returned VCAM-1 rise inactive and 26S disassembly 0.6.
For CCOc1ccc(NS(=O)(=O)c2ccc3[nH]cc(C(=O)N(CC)CC)c(=O)c3c2)cc1 the results were 26S disassembly -0.7.
CCOC(=O)c1[nH]c2ccccc2c1NC(=O)c1ccc(Br)o1 was read as 26S disassembly 11.
Screening CN(C)/C=C(\C#N)c1nc2ccccc2[nH]1 returned VCAM-1 rise inactive and 26S disassembly 2.5.
For Cc1nc2ccccc2c2oc(C(=O)NCC3COc4ccccc4O3)cc12 (stereo not given) the results were VCAM-1 rise inactive and 26S disassembly 1.8.
Screening C=CCOc1ccccc1/C=c1\sc2nc(=O)c(C)nn2c1=O returned VCAM-1 rise inactive and 26S disassembly 0.7.
Cc1nnc(SCC(=O)N2CCN(S(=O)(=O)c3ccccc3)CC2)[nH]c1=O was read as VCAM-1 rise inactive and 26S disassembly -1.4.
For Cc1ccc(-c2nc(CSCC(=O)NCCCN3CCOCC3)c(C)o2)cc1 the results were 26S disassembly 0.6.
Screening c1ccc(-c2nnc3sc(CN4CCC5(CC4)OCCO5)cn23)cc1 returned 26S disassembly -0.4.
For COc1cccc(/C=N/n2c(C)nc3ccccc32)c1OC the results were VCAM-1 rise inactive and 26S disassembly -1.9.
`COc1ccc(OC)c(NC(=O)c2nnn(Cc3ccccc3C)c2N)c1` gave 26S disassembly 0.8.
For CC(=O)c1c(C)[nH]c(C(=O)Nc2ccc3c(c2)OCCO3)c1C the results were VCAM-1 rise inactive and 26S disassembly -0.2.
Screening COc1ccc(-n2nnc3c(SCC(=O)OCc4ccccc4)ncnc32)cc1 returned 26S disassembly -1.8.
`COc1cccc2c(=O)cc(C)n(CC(=O)Nc3ccc(C)c(C)c3)c12` gave VCAM-1 rise inactive and 26S disassembly -2.7.
CC(=O)Nc1ccc2c(c1)nc(CCNC(=O)c1ccccc1)n2C was read as VCAM-1 rise inactive and 26S disassembly -1.0.
Screening Cc1ccc(-n2nc3c(c2NC(=O)c2cccs2)CSC3)cc1 returned 26S disassembly 0.2.
Screening COc1ccccc1C(=O)NCCn1cc(SCC(=O)NCc2ccco2)c2ccccc21 returned 26S disassembly 0.5.
For COc1nc(C#N)nc(N(C)C)n1 the results were 26S disassembly -1.0.
Screening O=C(COC(=O)c1ccccc1Oc1ccccc1)NC1CCS(=O)(=O)C1 (stereo not given) returned VCAM-1 rise inactive and 26S disassembly -0.9.
Cc1cc(C)cc(N(C(=O)C2CCCC2)C2C=CS(=O)(=O)C2)c1 (stereo not given) was read as 26S disassembly -0.7.
`COC(=O)C1Sc2[nH]c(=O)sc2C2c3ccccc3OC(=O)C12` (stereo not given) gave 26S disassembly -2.9.
Screening CCc1cccc(NC(=O)Cn2cccc2)c1 returned 26S disassembly -0.3.

Quoted from the results shown for reference:
Screening CN(C)/C=C(\C#N)c1nc2ccccc2[nH]1 returned VCAM-1 rise inactive and 26S disassembly 2.5.
For Cc1nc2ccccc2c2oc(C(=O)NCC3COc4ccccc4O3)cc12 (stereo not given) the results were VCAM-1 rise inactive and 26S disassembly 1.8.
Screening C=CCOc1ccccc1/C=c1\sc2nc(=O)c(C)nn2c1=O returned VCAM-1 rise inactive and 26S disassembly 0.7.

(more compounds)
For Cn1c(SCc2cccc3ccccc23)nnc1-c1ccco1 the results were VCAM-1 rise inactive and 26S disassembly 1.0.
For CCOC(=O)Cn1c(=O)oc2cc(S(=O)(=O)N3CCN(c4ccccn4)CC3)ccc21 the results were 26S disassembly -3.3.
Screening Cc1ccc(S(=O)(=O)N(C)c2ccc(OCC(=O)OCc3c(C)noc3C)cc2)cc1 returned VCAM-1 rise inactive and 26S disassembly 0.9.
N#Cc1c(N)n(CCNC(=O)c2cccs2)c2nc3ccccc3nc12 was read as VCAM-1 rise inactive and 26S disassembly 15.
Screening CCOc1cc2[nH]c(=O)n(CCC(=O)NCCc3ccccc3)c(=O)c2cc1OCC returned 26S disassembly 0.7.
`CCOc1nc(-c2ccccc2O)nc2ccccc12` gave VCAM-1 rise inactive and 26S disassembly -2.4.
Cc1onc(-c2ccccc2Cl)c1C(=O)N1CCN(c2cccc(Cl)c2)CC1 was read as 26S disassembly -0.3.
Screening COc1cc(C)nc(N2CCCC(C(=O)Nc3cccc(Cl)c3Cl)C2)n1 (stereo not given) returned VCAM-1 rise inactive and 26S disassembly 2.7.
Screening Cc1cc(-c2nc3ncccc3o2)ccc1N returned VCAM-1 rise inactive and 26S disassembly 0.8.
Cn1cccc1-c1cc(C(=O)O)[nH]n1 was read as VCAM-1 rise inactive and 26S disassembly -6.9.
`Cc1cccc(NC(=O)C2CCCN2C(=O)OCC(C)C)c1C` (stereo not given) gave VCAM-1 rise inactive and 26S disassembly -1.1.
Screening O=C(CN1CCN(c2ccc(F)cc2)CC1)OCc1ccccc1 returned VCAM-1 rise inactive and 26S disassembly 0.2.
`COc1ccc2c(c1)cc(C(=O)O)n2C` gave VCAM-1 rise inactive and 26S disassembly -0.7.
For CC(=O)Nc1cn(C(C)=O)c(C)n1 the results were 26S disassembly 0.8.
`CC1CCCCN1S(=O)(=O)c1ccc2c(c1)CCN2C(=O)CCC(=O)O` (stereo not given) gave 26S disassembly -0.3.
`O=C(Nc1ncnc2sc3c(c12)CCC3)c1ccco1` gave VCAM-1 rise inactive and 26S disassembly 2.7.
`CCN(CC)C(=O)c1ccc(COc2ccccc2Br)o1` gave 26S disassembly 3.0.
For O=S(=O)(NCC1CCCO1)c1ccc2c(c1)OCCO2 (stereo not given) the results were VCAM-1 rise inactive and 26S disassembly 2.5.
CCOc1ccc(-n2c(Cc3cc(=O)[nH]c(=O)[nH]3)nnc2SCC(N)=O)cc1 was read as 26S disassembly -0.9.
COc1cc(C(=O)NCCC(=O)NC2CCCCCCC2)cc(OC)c1OC was read as 26S disassembly 2.2.
For CN(C(=O)CSc1ncccc1C(=O)O)c1ccccc1 the results were 26S disassembly -1.4.
`O=C(Cn1ncc2c(=O)oc3ccccc3c21)NCC1COc2ccccc2O1` (stereo not given) gave 26S disassembly 1.8.
Screening Cc1nc2ccc3nc(NC(=O)c4ccc(S(=O)(=O)N5CCOCC5)cc4)sc3c2s1 returned 26S disassembly 0.1.
Screening Cc1cc(Br)c(S(=O)(=O)n2nnc3ccccc32)cc1C returned VCAM-1 rise inactive and 26S disassembly 1.9.
`CN(C)c1cc(-c2ccccc2)nc(N)n1` gave 26S disassembly -0.7.
`COc1cccc(N2CCN(C(=O)CCn3c(=S)[nH]c4cc5c(cc4c3=O)OCO5)CC2)c1` gave 26S disassembly 3.4.
Screening O=C(Cn1nnc(-c2cccc(C(F)(F)F)c2)n1)NC(=O)NCc1ccco1 returned VCAM-1 rise inactive and 26S disassembly -2.3.
Screening Cc1ccc(-c2nnn(CC(=O)NC3CC4CCC3C4)n2)cc1 (stereo not given) returned VCAM-1 rise inactive and 26S disassembly -0.3.
For COc1cccc(C(=O)N2CCN=C2SCc2cccnc2)c1OC the results were 26S disassembly 0.3.
Screening Cn1c(Cn2c(=O)sc3ccccc32)nnc1SCC(=O)NCc1ccccc1Cl returned 26S disassembly 0.5.
For CC(C)Cn1cc(C(=O)NCCCN2CCCC2=O)c2c3ccccc3n(C)c2c1=O the results were 26S disassembly -0.2.
Screening Cc1[nH]nc2c1C(c1ccccc1F)CC(=O)N2 (stereo not given) returned 26S disassembly -1.5.
`COc1ccc(-n2c(SCC(=O)NCC3CCCO3)nc3n[nH]c(C)c3c2=N)cc1` (stereo not given) gave 26S disassembly 1.2.
CCCN1CCN(C(=O)c2cn(CC(C)C)c(=O)c3cc(OC)c(OC)cc23)CC1 was read as VCAM-1 rise inactive and 26S disassembly -0.1.

Sorted by length of the SMILES (low to high): 6 of the compounds above.
For CN(C(=O)CSc1ncccc1C(=O)O)c1ccccc1 the results were 26S disassembly -1.4.
For COc1cccc(C(=O)N2CCN=C2SCc2cccnc2)c1OC the results were 26S disassembly 0.3.
Screening Cc1cc(Br)c(S(=O)(=O)n2nnc3ccccc32)cc1C returned VCAM-1 rise inactive and 26S disassembly 1.9.
Screening O=C(Cn1nnc(-c2cccc(C(F)(F)F)c2)n1)NC(=O)NCc1ccco1 returned VCAM-1 rise inactive and 26S disassembly -2.3.
`COc1ccc(-n2c(SCC(=O)NCC3CCCO3)nc3n[nH]c(C)c3c2=N)cc1` (stereo not given) gave 26S disassembly 1.2.
`COc1cccc(N2CCN(C(=O)CCn3c(=S)[nH]c4cc5c(cc4c3=O)OCO5)CC2)c1` gave 26S disassembly 3.4.
